Screening data from PubChem BioAssay.
VDR inh – Inhibitors of the vitamin D receptor (VDR): qHTS | Vitamin D3 receptor (Homo sapiens), P11473 | VDR-SRC2-3 peptide fluorescence polarization, 2 h | Potency, µM, for inactives: max response, negative = inhibition, most hits filed as inhibitors | 400,000 compounds, 0.93% hits | AID 504847, 2011; active = well fitted inhibition curve with a large enough effect; inconclusive = small, poorly fitted or top-dose-only effect, or another doubt; inactive = no such curve, though single readings can be large or run the other way; note: series mostly up to about 120 µM
Target sequence (P11473 whole entry, looked up): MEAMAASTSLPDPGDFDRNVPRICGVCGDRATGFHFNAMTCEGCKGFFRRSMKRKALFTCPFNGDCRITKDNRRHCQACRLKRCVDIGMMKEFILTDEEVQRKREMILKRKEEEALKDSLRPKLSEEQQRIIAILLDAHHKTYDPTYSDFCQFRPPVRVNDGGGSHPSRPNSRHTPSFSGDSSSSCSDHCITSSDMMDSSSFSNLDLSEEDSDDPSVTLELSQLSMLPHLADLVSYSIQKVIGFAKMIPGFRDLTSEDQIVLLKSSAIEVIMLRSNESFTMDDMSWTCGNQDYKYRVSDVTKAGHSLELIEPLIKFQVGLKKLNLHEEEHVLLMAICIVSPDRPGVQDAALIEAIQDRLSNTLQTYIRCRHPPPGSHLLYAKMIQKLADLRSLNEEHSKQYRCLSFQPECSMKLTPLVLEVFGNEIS
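Signal is fluorescence polarization, reporting how far test compounds block the interaction of VDR with the SRC2-3 coregulator peptide after a 2 h room-temperature incubation.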
Starred values were filed as active, the others as inactive; ? = inconclusive; & = joins results of further samples; [ ] = remark or other dose. % is set by controls: 0 for no effect and ±100 for the full control effect; potency is the fitted concentration of half-maximal effect.

SMILES	VDR inh
Cc1cc(C)c(S(=O)(=O)NCC(c2cccnc2)N2CCN(Cc3ccccc3)CC2)c(C)c1 (stereo unspecified)	-8%
CCCN(CCC)CCCNC(=O)c1cn(CC)c2ccc(S(=O)(=O)N3CCc4ccccc4C3)cc2c1=O	3%&-7%
CSc1sc(C(=O)O)c(C)c1C(C)=O	12%
CCCNc1nc(-c2cc(-c3ccc(Cl)cc3)on2)cc(C(C)C)n1	5%
CC(=O)[C@H]1CC[C@H]2[C@@H]3CCC4=CC(=O)CC[C@]4(C)[C@H]3[C@H](O)C[C@]12C	-7%
Cc1ccc(Cn2c(C(CO)Nc3nc(-c4ccc(F)cc4)cs3)nc3ccccc32)cc1 (stereo unspecified)	-15%
O=C(c1cccc([N+](=O)[O-])c1)N1c2ncnn2C2(CCCCC2)[C@@H]2CCCC[C@@H]21	5%
CCCCC(=O)Nc1ccc(NC(=O)C(C)C)cn1	8%
CCOc1ccc(NC(=O)CN(c2ccc(OC)cc2)S(=O)(=O)c2cccs2)cc1	8%
O=C(CN1C(=O)S/C(=C/c2ccncc2)C1=O)N1CCOCC1	-16%
COc1ccc(O)c(C(=O)c2cc(C(=O)NCCc3ccccc3)c(=O)n(CCc3ccccc3)c2)c1	?
COc1ccc(CC(=O)OCC(=O)Nc2ncc(Cl)cc2Cl)cc1	4%
CN(C)c1ccc(C(=O)NCC2CCCO2)cc1 (stereo unspecified)	6%
COC(=O)c1cnn(-c2ccc(C(=O)Nc3ccc(C(C)=O)cc3)cc2)c1N	-7%
Cn1cc(S(=O)(=O)c2ccccc2)c(=O)c2cc(F)c(N3CCOCC3)cc21	-13%&10%
Cc1ccc(CN(C)CC(=O)Nc2ccccc2C(=O)NC2CC2)o1	7%
Cc1cc(C)n2nc(C(=O)N/N=C/c3c4ccccc4cc4ccccc34)nc2n1	3%
C/C(=N\NC(=O)c1ccccc1)c1ccccc1Br	1%
COC(=O)CSc1nnc(CNc2ccc(OC)cc2)n1C	-13%
O=C(NCc1ccc(Cl)cc1)c1cc2ccccc2oc1=O	18%
COc1cc(NC(=O)C2CC(c3c(F)cccc3Cl)=NO2)cc(OC)c1OC (stereo unspecified)	-10%
CCN(CC)S(=O)(=O)c1ccc(S(=O)(=O)Nc2ccc(C(=O)N3CCCC3)cc2)cc1	-5%
COc1cc(OC)cc(C(=O)N2CCN(C(=O)Cc3ccccc3)CC2)c1	-9%
O=c1[nH][nH]cc1C=Nc1ccc(Oc2ccccc2)cc1	-8%
CNS(=O)(=O)c1ccc2c(c1)C(=O)c1cc(S(=O)(=O)NC)ccc1CC2	-4%

Shown as labelled records: part of the list above
> COC(=O)CSc1nnc(CNc2ccc(OC)cc2)n1C
  VDR inh = -13%

> O=c1[nH][nH]cc1C=Nc1ccc(Oc2ccccc2)cc1
  VDR inh = -8%

> CNS(=O)(=O)c1ccc2c(c1)C(=O)c1cc(S(=O)(=O)NC)ccc1CC2
  VDR inh = -4%

> CCCN(CCC)CCCNC(=O)c1cn(CC)c2ccc(S(=O)(=O)N3CCc4ccccc4C3)cc2c1=O
  VDR inh = 3%&-7%

4 entries from above, with values ahead of the structure.
VDR inh,mol
18%,O=C(NCc1ccc(Cl)cc1)c1cc2ccccc2oc1=O
-10%,COc1cc(NC(=O)C2CC(c3c(F)cccc3Cl)=NO2)cc(OC)c1OC (stereo unspecified)
-5%,CCN(CC)S(=O)(=O)c1ccc(S(=O)(=O)Nc2ccc(C(=O)N3CCCC3)cc2)cc1
-9%,COc1cc(OC)cc(C(=O)N2CCN(C(=O)Cc3ccccc3)CC2)c1

Going on with the list:
SMILES	VDR inh
CCCc1ccc(OCC(O)CN2CCN(CCO)CC2)cc1 (stereo unspecified)	-18%
Cc1cc(CN2CCCC(N3CCc4ccccc4C3)C2)cc(C)c1O (stereo unspecified)	-4%
Cc1ccc(-n2nc(C(=O)N3CCN(C)CC3)c3c4ccccc4n(C)c3c2=O)cc1	-14%
Nc1nc(SCC(=O)NCC2CCCO2)[nH]c(=O)c1NC(=O)c1ccc(F)c(F)c1 (stereo unspecified)	-7%
COc1ccc(OC)c(NC(=O)c2cc(-c3cc(Cl)ccc3O)n[nH]2)c1	-4%
Cc1ccc(NC(=O)CN(C)C(=O)Cn2ncc(Cl)c(Cl)c2=O)cc1	-6%
O=C(COC(=O)/C=C/c1cccc(Cl)c1)Nc1c(F)cccc1F	-12%
CC(NC(=O)COC(=O)C1CC1C)c1cccc(Cl)c1 (stereo unspecified)	38%[activator]
CNCC/C=C1/c2ccccc2CSc2ccccc21	-15%
C#CCOCCOCCOCCNc1nc(N2CCOCC2)nc(N2CCN(C(=O)[C@H]([C@@H](C)CC)n3cc(CCCCN)nn3)CC2)n1	-4%
O=C(O)CCCC(=O)Nc1cccc(-c2nc3ccccc3[nH]2)c1	8%
C#CCOCCOCCOCCNc1nc(N2CCN(C(=O)[C@H](CC(N)=O)n3cc([C@@H](N)CC(N)=O)nn3)CC2)nc(N2CCN(C(=O)[C@H](CC(N)=O)n3cc([C@@H](N)CC(N)=O)nn3)CC2)n1	7%
CCCn1c(C(C)Nc2nc(-c3ccc(OC)cc3)cs2)nc2ccccc21 (stereo unspecified)	1%
CN(C)CCCNC(=S)Nc1ccc(Br)cc1	-11%
O=C(OCc1cc(=O)n2nc(C3CC3)sc2n1)c1ccc(NC(=O)c2ccccc2F)cc1	7%
CCCCC[C@H](O)/C=C/C=C/C/C=C\CCCC(=O)O	9%
CC(C)c1ccc(C2=NN(c3ccccc3)C(=O)CC2)cc1	-9%
CC(C)(C)NC(=O)c1ccc(COCC(F)(F)F)o1	-3%
NNC(=O)CSc1ncc(-c2ccccc2)[nH]1	-4%
O=C(Cn1cc(C(F)(F)F)ccc1=O)N/N=C/c1ccccc1	9%
CCCCCOC(=O)CSc1nc2sc3c(c2c(=O)n1-c1ccccc1)CC(C)(CC)OC3 (stereo unspecified)	25%
COc1ccc(CNC(=O)C2CCN(C(=O)c3cccc(Cl)c3)CC2)cc1	-13%
CN(C1CCCCC1)S(=O)(=O)c1ccc(=S)[nH]c1	50µM*
CCc1nc2cc3sc(CC)nc3cc2s1	53%[activator]
CC(=O)N/C(=C/c1ccc(Cl)cc1)C(=O)NCCc1c[nH]c2ccccc12	-2%

Reformatted: entries from further up
| VDR inh | SMILES |
| --- | --- |
| -15% | CNCC/C=C1/c2ccccc2CSc2ccccc21 |
| -4% | C#CCOCCOCCOCCNc1nc(N2CCOCC2)nc(N2CCN(C(=O)[C@H]([C@@H](C)CC)n3cc(CCCCN)nn3)CC2)n1 |
| 8% | O=C(O)CCCC(=O)Nc1cccc(-c2nc3ccccc3[nH]2)c1 |

Pulled one by one from the entries so far:
SMILES	VDR inh
Cc1ccc(-n2nc(C(=O)N3CCN(C)CC3)c3c4ccccc4n(C)c3c2=O)cc1	-14%
C#CCOCCOCCOCCNc1nc(N2CCOCC2)nc(N2CCN(C(=O)[C@H]([C@@H](C)CC)n3cc(CCCCN)nn3)CC2)n1	-4%

The results go on.
SMILES	VDR inh
Cc1nc2sccn2c1-c1csc(NCc2ccccc2)n1	-12%
CCN1C(=O)[C@H]2[C@@H](c3ccc(-c4ccc5c(c4)OCO5)c(OC)c3)N[C@@](C)(C(=O)OC)[C@H]2C1=O	-5%
CC1(C)Cc2cccc(C(=O)NC3CCN(Cc4ccccc4)CC3)c2O1	-1%
O=c1cc2ncc(-c3[nH]ncc3[N+](=O)[O-])cn2[nH]1	-24%
CCc1nn(CC(=O)NCCCN2CCOCC2)c(=O)c2cc3cc(F)ccc3n12	-13%
CC[C@H](C)[C@H](NC(=O)[C@H](CC(C)C)NC(=O)[C@H](CC(N)=O)NC(=O)[C@@H](NC(=O)[C@@H](N)Cc1ccc(O)cc1)[C@@H](C)CC)C(=O)N[C@@H](Cc1ccc(O)cc1)C(=O)N[C@@H](CCCN=C(N)N)C(=O)N[C@@H](CC(C)C)C(=O)N[C@@H](CCCN=C(N)N)C(=O)N[C@@H](Cc1ccc(O)cc1)C(N)=O	3%
Cc1nnc2sc(SCC(=O)N3CCC(C)CC3)nn2c1=O	9%
COC(=O)c1ccc(CSc2nnc(Nc3ccc(OC)cc3)s2)o1	-13%
Cn1nnnc1SCCNCc1cc(Br)ccc1OCc1ccccc1Cl	-5%
CCN(CC)CCCN(C(=O)c1ccccc1F)c1nc(-c2ccc(OC)cc2)cs1	8%
Cc1ccc(S(=O)(=O)N2CCCC2)cc1C(=O)Nc1ccc(-n2cnnn2)cc1	14%
CC(C)C(NCC(=O)Nc1ccccc1C(=O)NC1CC1)c1ccccc1 (stereo unspecified)	-7%
CCOc1ncccc1C(=O)Nc1ccc(F)c(Cl)c1	-8%
O=C(NCCC1=CCCCC1)c1ccc(-n2cncn2)cc1	9%
O=C(NC1CCCCCC1)C1c2ccccc2C(=O)N1Cc1ccco1 (stereo unspecified)	-20%
CC(C(=O)Nc1ccc(F)cc1Cl)N(C)CCOc1ccccc1 (stereo unspecified)	4%
O=C(Cc1ccccc1)NCc1n[nH]c(=S)n1-c1ccccc1	2%
CC(C)CCC(C(=O)O)C(C)CC(=O)NC1CCCCC1 (stereo unspecified)	3%
O=C(C=P(c1ccccc1)(c1ccccc1)c1ccccc1)c1ccccc1-c1ccccc1C(=O)C=P(c1ccccc1)(c1ccccc1)c1ccccc1	?
Cc1csc(NC(=O)CSc2nc3[nH]c(=O)cc(O)c3s2)n1	-3%
COC(=O)c1cnn(-c2ccc(C)c(C)c2)c1-n1cccc1	12%
NC(=O)c1cc2cc(Cc3ccccc3Cl)ccc2oc1=O	-4%
COc1ccccc1NC(=O)Cn1nnc(C(=O)Nc2ccccc2Br)c1N	11%
N#Cc1sc2nc(C3CC3)cc(-c3ccc(Cl)cc3)c2c1N	-5%
Cc1ccc(C)c(N2CCN(C(=O)CS(=O)(=O)c3cccc4nsnc34)CC2)c1	6%
Cc1ccc(OCC(=O)NNC(=O)c2ccccc2OCc2c(C)noc2C)cc1	-3%
Cc1cc(C)n(CCn2nc(C)cc2C)n1	-9%
CC(=O)N/N=C(\C)CC(=O)Nc1cccc(C(F)(F)F)c1	-3%
Cc1c(-c2cccc(Cl)c2)nc2ccccc2c1C(=O)NC1CC1	0%
CCOc1c(OC)ccc2c3c(c(=O)oc12)CCCC3	8%
COCCn1c(SCC(=O)Nc2ccc(F)cc2)nc2c([nH]c3ccccc32)c1=O	?
O=C(CN1C(=O)COc2ccc(S(=O)(=O)N3CCOCC3)cc21)N1CCN(c2cccc(Cl)c2)CC1	-1%
Cc1cc(C)c(C(=O)O)c(CC(C)(C)C(=O)O)c1	10%
Cc1ccc(/C=C2\Sc3ccccc3C2=O)s1	-2%
COc1ccc(-c2nc3sc(CCNC(=O)C(=O)Nc4c(C)cccc4C)c(C)n3n2)cc1	-3%
N#Cc1c(-c2cccc([N+](=O)[O-])c2)nc2n(c1=O)CCS2	-3%
CCc1ccc(C(=O)NNc2ccc(F)cc2)cc1	-23%
CCc1ccc(-c2cc(C(=O)NCc3ccco3)c3ccccc3n2)s1	-20%
CCS(=O)(=O)c1ncc(Cl)c(C(=O)Nc2ccc(C)cc2)n1	16µM*
O=C(COC(=O)/C=C/c1ccccc1[N+](=O)[O-])NC1CC1	71µM*
COc1cc(S(=O)(=O)N2CCN(C(=O)C3CC3)CC2)ccc1NC(C)=O	-3%
CC(=O)Nc1ccc(NC(=O)CC(NC(=O)c2ccccc2)c2ccccc2)cc1 (stereo unspecified)	0%
COc1ccc(C(=O)NCC2CCCO2)cc1S(=O)(=O)N1CCCc2ccccc21 (stereo unspecified)	-13%
COc1cc(C2CC(=O)C3=C(C2)Nc2ncnn2C3c2cccs2)cc(OC)c1OC (stereo unspecified)	-9%
C/C=C(\C)CN1CCN(c2ccc(C)cc2)CC1	17%
Cc1onc(-c2c(Cl)cccc2Cl)c1C(=O)N1CCN(c2ccc(F)cc2)CC1	0%
Cc1cc(-c2n[nH]c(=S)n2/N=C/c2cccc([N+](=O)[O-])c2)n[nH]1	-8%
CN(C)c1ccc(CC(=O)c2nc3ccccc3s2)cc1	-2%

Some of the compounds tested; count on the stated rates, not on these rows.
